High-throughput results deposited in PubChem by National Center for Advancing Translational Sciences (NCATS).
miR-21 FLuc: miR-21 reporter, rising signal. 340,000 tested, under 10 active. Potency, µM (series often up to 38.3 µM), for inactives: at the highest dose reporter change, positive = more light. HeLa miR-21 FLuc reporter, luciferase, 48 h; active = well fitted rising curve with a large enough effect; inconclusive = small, poorly fitted or top-dose-only effect; inactive = no such curve, though single readings can be large or run the other way;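 further: % of control where 0% means no effect; miR-21 action dims this reporter so a rising signal means less miR-21 action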
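Luminescence from a firefly luciferase reporter carrying a miR-21 binding site downstream, stably expressed under a CMV promoter in HeLa cells that make miR-21 endogenously, reports miRNA modulation after 48 h compound exposure up to approximately 40uM final.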
Rango dissoc inh: prevents RanGTP from dissociating the Rango-importin beta complex | Biochemical FRET Rango-importin beta, RanGTP-induced dissociation | 0.071% of 340,000 active | O95149+P62826 | Potency, µM (doses to about 46.1 µM), for the others: top-dose activity change, negative = inhibition; active means falling FRET ratio curve, often poorly fitted, with flat reads before Ran was added; inconclusive means other falling curves, or compound fluorescence or quenching; inactive means flat or rising ratio curve;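 further: potency means the concentration at half of the fitted maximal effect; % of control where 0% means no effect; nearly all actives have a fitted effect of over 45% in size; -100% = wells without RanGTP and RCC1; the record marks most hits as doubtful in a second field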
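FRET read at 45 min, room temperature: inhibitors block the CFP/YFP signal rise when RanGTP (0.6 uM Ran, 2 mM GTP, 0.2 uM RCC1) frees Rango (0.1 uM) from importin beta (0.25 uM). Pre-read after 5 min compound exposure flags interference.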
GLA inh pH 4.5: inhibitors of human alpha-galactosidase A at pH 4.5; P06280; purified enzyme, 4-MU-alpha-Gal fluorescence, pH 4.5; activity change, negative = inhibition, % at 105 µM; 230,000 tested, under 10 active; inconclusive = small, poorly fitted or top-dose-only inhibition, or a rising curve; inactive = flat fitted curve, though single readings scatter; no compound was filed as active;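 further: 0% = full activity with enzyme and -100% = basal without enzyme; dose as in the result columns while the protocol names 77 µM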
Rango-impB inh: prevents formation of the Rango-importin beta complex; 0.031% of 340,000 active; Q14974; AID 540263; Potency, µM (highest dose often 92.2 µM), for the others: at the top dose inhibition of complex formation; Rango CFP/YFP FRET sensor + importin beta, 45 min; active = rising FRET ratio curve, often small or poorly fitted; inconclusive = mostly compound fluorescence or quenching in the first reads; inactive = flat curves in all reads;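 further: potency means the concentration at half of the fitted maximal effect; 0% = DMSO wells and 100% = buffer wells lacking importin beta; nearly all actives have a fitted effect of over 15% in size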
Target sequence (Q14974 whole entry, looked up): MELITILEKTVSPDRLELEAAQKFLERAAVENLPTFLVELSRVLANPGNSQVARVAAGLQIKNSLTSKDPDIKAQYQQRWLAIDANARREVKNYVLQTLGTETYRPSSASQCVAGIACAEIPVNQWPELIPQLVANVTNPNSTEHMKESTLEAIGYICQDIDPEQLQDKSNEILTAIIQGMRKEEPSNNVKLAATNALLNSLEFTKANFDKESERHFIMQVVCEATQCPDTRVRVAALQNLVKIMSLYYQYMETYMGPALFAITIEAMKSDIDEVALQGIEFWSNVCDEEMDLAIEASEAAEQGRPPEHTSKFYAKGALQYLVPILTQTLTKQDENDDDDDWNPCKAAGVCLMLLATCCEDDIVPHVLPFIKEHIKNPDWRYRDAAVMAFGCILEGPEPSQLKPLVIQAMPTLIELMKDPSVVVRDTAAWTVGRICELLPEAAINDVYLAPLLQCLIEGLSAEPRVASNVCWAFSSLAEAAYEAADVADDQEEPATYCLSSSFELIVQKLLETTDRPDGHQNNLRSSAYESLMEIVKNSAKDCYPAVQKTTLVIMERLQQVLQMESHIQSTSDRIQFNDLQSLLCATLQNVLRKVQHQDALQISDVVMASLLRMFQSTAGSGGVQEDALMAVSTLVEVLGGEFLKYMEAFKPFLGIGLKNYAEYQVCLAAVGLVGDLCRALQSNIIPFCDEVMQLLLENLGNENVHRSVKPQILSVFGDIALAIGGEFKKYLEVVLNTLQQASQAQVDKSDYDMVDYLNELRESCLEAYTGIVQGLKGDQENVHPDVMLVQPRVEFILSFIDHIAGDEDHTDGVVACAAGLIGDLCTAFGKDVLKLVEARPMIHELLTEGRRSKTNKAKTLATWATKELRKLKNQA
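FRET biosensor (snurportin 1 IBB flanked by EYFP and cerulean), 50 nM, with compound 5 min, then 0.125 microM importin beta in PBS, 1 mM DTT, 0.02% Tween-20, 0.1% BSA. CFP/YFP ratio read after 45 min at room temperature; pre-read flags interference.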
Numbers without * were called inactive; ? = inconclusive; nt = no result given. Some of the compounds tested (hit frequency here may not be typical).

Start of the listing, in advance, five compounds:
structure | miR-21 FLuc | Rango dissoc inh | GLA inh pH 4.5 | Rango-impB inh
Cc1nnc(N/N=C\c2ccc(-c3cccc(C(=O)O)c3)o2)n1N | -10% | -30% | -6 | -0.3%
Cc1cc(C)c2c(-n3cccc3)n[nH]c2n1 | -10% | -17% | 3 | -2.7%
CCOC(=O)C1CCCN(C(=O)c2cccc3ccccc23)C1 (stereo not given) | 0% | -12% | nt | 1.6%
CCc1nnc(NS(=O)(=O)c2ccc(NC(=O)/C=C/c3ccccc3Cl)cc2)s1 | -9% | 8% | 4 | -0.5%
COc1ccc(C)c2sc(NC(=O)C3CC3)nc12 | 2% | 0% | nt | 3.6%

All compounds of this part, from the first entry:
structure | miR-21 FLuc | Rango dissoc inh | GLA inh pH 4.5 | Rango-impB inh
Cc1nnc(N/N=C\c2ccc(-c3cccc(C(=O)O)c3)o2)n1N | -10% | -30% | -6 | -0.3%
Cc1cc(C)c2c(-n3cccc3)n[nH]c2n1 | -10% | -17% | 3 | -2.7%
CCOC(=O)C1CCCN(C(=O)c2cccc3ccccc23)C1 (stereo not given) | 0% | -12% | nt | 1.6%
CCc1nnc(NS(=O)(=O)c2ccc(NC(=O)/C=C/c3ccccc3Cl)cc2)s1 | -9% | 8% | 4 | -0.5%
COc1ccc(C)c2sc(NC(=O)C3CC3)nc12 | 2% | 0% | nt | 3.6%
Cc1ccc(C(=O)Nc2ccc3c(c2)nc(CCNC(=O)c2ccco2)n3C)cc1 | -54% | 3% | nt | -2.3%
CC(C)c1nc(CNC(=O)CCc2nnc(-c3ccsc3)o2)cs1 | -11% | 19% | -13 | -3.4%
Cc1ccc(S(=O)(=O)NC(C)C(=O)NC2CC2)cc1 (stereo not given) | 2% | -1% | nt | -0.3%
COc1ccc(S(=O)(=O)Nc2ncccn2)cc1 | -27% | 20% | nt | 1.4%
O=C(Cn1cc(C(F)(F)F)ccc1=O)Nc1cc(S(=O)(=O)N2CCOCC2)ccc1Cl | -5% | -2% | 1 | -3.1%
Cc1cccc(C)c1NC(=O)C(=O)NCc1ccccn1 | -3% | -15% | 13 | -3.8%
O=C1C=C(NC2=CC3OC(c4ccccc4)OCC3OC2=O)CCC1 (stereo not given) | 14% | -6% | 1 | -3.5%
CCC(C)[C@H](NC(=O)N1CCCCCC1)C(=O)O (stereo not given in full) | -1% | 3% | -2 | -5.3%
COc1ccc2nc(NC(=O)c3ccccc3O)sc2c1 | -35% | 0% | nt | -0.5%
COc1cc([N+](=O)[O-])ccc1NC(=O)COC(=O)c1c[nH]c(=O)[nH]c1=O | nt | -7% | nt | -1.6%
CC(=O)c1cccc(N2C(=NC(=O)C(C)C)SC3CS(=O)(=O)CC32)c1 (stereo not given) | -4% | -15% | -4 | -4.0%
CC1(C)Oc2ccc(C(=O)N3CCCCC3)cc2N(CC(=O)NCc2ccccc2)C1=O | -3% | -3% | 1 | -0.2%
CCOC(=O)N1CCN(C(=O)c2cccc(OC)c2OC)CC1 | -9% | 1% | 2 | 0.1%
O=C(CN1CCN(c2ccccc2)CC1)Nc1ccc(F)cc1 | -5% | -2% | nt | 0.1%
O=C(c1ccc(Cl)cc1)N1CCc2ccccc21 | -32% | -7% | nt | 0.4%
CC1CCCN(S(=O)(=O)c2ccc(C(=O)Nc3nnc(-c4ccccn4)o3)cc2)C1 (stereo not given) | 0% | 0% | 7 | 4.0%
CC(O)CNc1nc2c(c(=O)n(Cc3ccc(Cl)c(Cl)c3)c(=O)n2C)n1C (stereo not given) | -1% | 33% | -5 | 3.0%
COC(=O)C1(Cc2cc(-c3cccnc3)no2)CCN(C(=O)OC(C)(C)C)CC1 | -2% | -9% | nt | 6.8%
Cc1ccc(-n2nnnc2SCC(N)=O)c(C)c1 | -10% | -5% | -5 | -1.5%
COc1cccc(C2C(C(=O)c3cc4ccccc4o3)=C(O)C(=O)N2CCN(C)C)c1OC (stereo not given) | nt | -4% | nt | -2.3%
CC(=O)Oc1ccc(C(=O)Cc2ccccn2)c(O)c1 | -11% | -10% | -4 | ?
Cc1nc2ccc(Oc3ccccc3)cc2s1 | nt | 17% | nt | -3.1%
CCS(=O)c1ccccc1C(=O)OCC(=O)N1CCC(c2ccccc2)=N1 (stereo not given) | nt | 15% | nt | 1.3%
CCSc1nc2c(cnn2-c2ccc(C)cc2)c(=O)[nH]1 | -12% | 29% | 6 | -2.0%
O=C(CCNS(=O)(=O)c1ccc2c(c1)CCC(=O)N2)Nc1ccc2c(c1)OCCO2 | -8% | 1% | -1 | 1.0%
COc1ccc(OC)c(C(=O)c2ccc(C(=O)O)cc2)c1 | -3% | -13% | 0 | -0.4%
C#CCOCCOCCOCCNc1nc(N2CCN(C(=O)[C@H](C(C)C)n3cc(CCO)nn3)CC2)nc(N2CCN(C(=O)[C@H]([C@@H](C)CC)n3cc(CCCN=C(N)N)nn3)CC2)n1 | -11% | 2% | 7 | ?
CCSc1nnc(NC(=O)CSc2nccn2-c2cccc(C)c2C)s1 | -9% | 5% | 1 | 1.2%
COC(=O)c1sc(NC(=O)C2CCCCC2C(=O)O)c(C(=O)OC)c1C (stereo not given) | 2% | 3% | 1 | 4.7%
COc1ccccc1CNC(=O)COC(=O)c1cc([N+](=O)[O-])ccc1N1CCOCC1 | -11% | 6% | nt | -1.0%
O=C(NCCc1ccccc1)/C(=C\c1ccccc1)NC(=O)c1ccco1 | -4% | 0% | nt | 0.1%
COCC(=O)Nc1nnc(Cc2ccc(OC)c(OC)c2)s1 | -11% | 4% | -6 | -0.8%
COc1ccc(N(CC(=O)NC(C)c2ccccc2)S(=O)(=O)c2ccc(C)cc2)cc1 (stereo not given) | 4% | 1% | nt | 0.2%
CC(OC(=O)c1cccs1)C(=O)NCc1ccc2c(c1)OCO2 (stereo not given) | 5% | -11% | 2 | -1.7%
O=C(CCN1C(=O)C2C3C=CC(C3)C2C1=O)Nc1c(F)cc(F)cc1Br (stereo not given) | -3% | 13% | 1 | -1.2%
O=C(COC(=O)/C=C/c1ccc(OC(F)F)cc1)Nc1ccc(S(=O)(=O)N2CCCC2)cc1 | -7% | 0% | -4 | -0.6%
Cc1cc(NC(=O)COC(=O)C2=COCCO2)c([N+](=O)[O-])cc1C | -8% | 11% | 1 | -1.1%
COc1ccc(O)c(C(=O)c2cnn(C(=O)c3cccc(S(=O)(=O)N4CCOCC4)c3)c2)c1 | 7% | 17% | -7 | 1.3%
Cc1nc(-c2cccc(NC(=O)c3ccco3)c2)cs1 | -19% | -1% | nt | -0.8%
Cc1cc(Cl)ccc1-n1c(-c2cccnc2)n[nH]c1=S | 0% | 13% | -2 | -3.2%
Cn1cnnc1SCC(=O)Nc1ccc(Cl)cn1 | -2% | 0% | 0 | -0.6%
CCN(CC)S(=O)(=O)c1ccc2c3c(cccc13)C(=O)S2 | -17% | -12% | -23 | -0.5%
CCn1c(SCC(=O)Nc2cccc(C)c2)nc2c(c1=O)SC(C)C2 (stereo not given) | -21% | 13% | 6 | -0.3%
Cc1ccc(N(CC(=O)NC(C)(C)C)C(=O)CS(=O)CC(=O)Nc2ccc(F)cc2)cc1 (stereo not given) | 2% | 7% | 6 | -4.2%
O=C1/C(=C/c2cccs2)SC(=S)N1CCCC(=O)N(CCO)c1ccccc1 | 1% | 7% | nt | -0.6%
COC(=O)C(C)Oc1ccc2c(c1)O/C(=C\c1cccc(Br)c1)C2=O (stereo not given) | 0% | 29% | nt | 0.4%
Cc1nc2ccccc2n1CC(=O)N/N=C\C=C\c1ccccc1 | 8% | 0% | -2 | 1.4%
CCCCN1C(=O)c2ccc(C(=O)Nc3cccnc3)cc2C1=O | -5% | -4% | -11 | -3.5%
N#Cc1c(SCC(=O)Nc2nccs2)nc2c(c1-c1ccco1)CCCC2 | -23% | 0% | 0 | 0.5%
CC(=O)C(Sc1ncnc2c1nnn2-c1ccc(F)cc1)C(=O)N(C)C (stereo not given) | -12% | 2% | -11 | 1.0%
COc1cccc(CNc2nccs2)c1O | -29% | 0% | nt | -4.5%
CCOC(=O)c1c(C)[nH]c(C(=O)CN2CC(C)OC(C)C2)c1C (stereo not given) | -11% | 14% | 3 | -2.4%
CCN1C(=O)/C(=C/c2cn(-c3ccccc3)nc2-c2cccnc2)SC1=S | nt | 8% | nt | 3.3%
CC(C)S(=O)(=O)C1=NSC2=NC(=O)/C(=C\c3ccc(-c4cccc(C(=O)O)c4)o3)C(=N)N21 | -11% | ? | -7 | ?
C=CCn1c(SCC(=O)N(CCO)CCO)nc2sc3c(c2c1=O)CCC3 | -1% | -5% | nt | -0.5%

Continued.
structure | miR-21 FLuc | Rango dissoc inh | GLA inh pH 4.5 | Rango-impB inh
CCNC(=O)c1cccc(NC(=O)CN2C(=O)NC3(CCCCC3)C2=O)c1 | nt | 2% | nt | 1.3%
O=C(NC(CSC(=O)c1ccccc1)C(=O)O)OCc1ccccc1 (stereo not given) | nt | 18% | nt | -1.6%
CCCOc1ccc(CN2CCOCC2)cc1OC | 1% | -9% | 1 | 0.9%
S=c1[nH]nc2c3c4c(sc3ncn12)CCCC4 | 2% | 1% | 4 | 0.9%
COc1ccc(NC(=O)CN2C(=O)CC(C)(C)S(=O)(=O)c3ccccc32)cc1 | -12% | -15% | 5 | -0.7%
C=CCn1c(C(C)NC(=O)CC)nc2ccccc21 (stereo not given) | 2% | 2% | -7 | 3.7%
CC1(C)C(C=C(Cl)Cl)C1C(=O)Nc1ccc([N+](=O)[O-])cc1 (stereo not given) | 27% | -20% | -13 | 6.3%
COC(=O)C1=C(C)OC(N)=C(C#N)C1c1cc2cccc(C)c2nc1Cl (stereo not given) | -12% | nt | 0 | nt
COc1ccc(-c2cc(C(=O)N/N=C(\C)c3cccnc3)c3ccccc3n2)c(OC)c1 | -18% | 2% | nt | -1.8%
CC(C)c1nnc2c(N(C)S(=O)(=O)c3ccccc3)nc3ccccc3n12 | -1% | ? | nt | -2.7%
COC(=O)[C@@]1(Cc2ccccc2)[C@H]2C(=O)N(Cc3ccccc3)C(=O)[C@H]2[C@H]2CN(C)C(=NCc3ccccc3)N21 | nt | -3% | nt | ?
Cc1cc(OC(C)C(=O)NCCCN2CCCC2=O)c2c(C)c(C)c(=O)oc2c1 (stereo not given) | 0% | 20% | nt | -0.1%
COCCCn1c(C)cc(C(=O)CN2c3cccc4cccc(c34)S2(=O)=O)c1C | nt | -16% | nt | 0.0%
NC(=O)c1c(NC(=O)C(=O)NCCCN2CCOCC2)sc2c1CCCC2 | 3% | 4% | nt | -3.9%
Cc1ccc(O)c(NC(=O)c2cccc(NC(=O)c3ccco3)c2)c1 | -25% | -24% | 6 | 3.5%
Cn1c(=O)c2[nH]c(SCCN)nc2n(C)c1=S | nt | -3% | nt | -2.1%
Cc1cc(S(=O)(=O)N(Cc2ccc(C(C)C)cc2)CC2CCCO2)ccc1-n1cnnn1 (stereo not given) | 17% | -15% | -9 | 3.4%
COC(=O)C1CCCCN1C(=O)c1ccc(OC2CCN(C(C)=O)CC2)c(OC)c1 (stereo not given) | -8% | 14% | nt | 0.3%
COc1ccccc1C(=O)NCC(=O)OC(C)C(=O)N1CCOCC1 (stereo not given) | nt | 2% | nt | -0.9%
COC(=O)c1ccc(COc2ccc(C#N)cc2)o1 | -17% | 4% | nt | 0.1%
Cc1ccc(Cn2ccc(NC(=O)c3cc(-c4ccco4)on3)n2)cc1 | -10% | -9% | -1 | 0.1%
Cc1ccc2nc(NC(=O)C3CCN(S(=O)(=O)c4cccnc4)CC3)sc2c1 | 25% | 1% | 1 | -1.0%
COc1cccc(CN(C)C(=O)c2ccc(S(=O)(=O)Nc3ccccc3F)cc2)c1OC | nt | 2% | nt | ?
CCc1ccc(NC(=O)N2CCN(c3ccccc3)CC2)cc1 | -20% | -3% | 0 | 2.6%
Cc1cccc(-c2nc(C#N)c(N3CCCCC3)o2)c1 | -46% | -5% | nt | -0.6%
CCOc1cc2[nH]c(=S)n(CCC(=O)N3CCc4ccccc4C3)c(=O)c2cc1OCC | -6% | -8% | 6 | -1.0%
O=C(NCCCN1CCOCC1)c1cc(-c2cccs2)on1 | -72% | 13% | 2 | 4.2%
